Measles inh: inhibitors of measles virus growth in cells, primary screen, measles RdRp inhibitor project, cell-based, single point, HTS. infected Vero cells, GFP fluorescence, 64 h; active compounds read low. z-score (concentration not given with the values). 0.1% of 33,000 active;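 active = z-score under -3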;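 note: score is relative to mean and SD of the compound wells of a plate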
* marks the source's active call; other numbers are inactive results. The list is partial; the hit share may differ from the screen's.

SMILES	Measles inh
CC(C)n1c(=S)[nH]c2c(sc3ccccc32)c1=O	0.01
CCOC(=O)c1ccc(N2C(=S)NC3c4cccc(OC)c4OC2(C)C3C(=O)N(C)C)cc1 (configuration not stated)	-0.22
COc1ccc(N2Cc3cccc(C(=O)NCc4ccc(C)cc4)c3C2=O)cc1	-0.78
CCOc1cc(C2C(C(=O)N3CCCCC3)=C(C)NC3=C2C(=O)CC(C)(C)C3)cc(Br)c1O (configuration not stated)	1.3
O=C(NCCN1CCOCC1)c1ccc2c(=O)n(Cc3ccc4c(c3)OCO4)c(=S)[nH]c2c1	0.07
COc1cccc(C=Cc2nc3ccccc3c(=O)n2-c2cc(C)cc(C)c2)c1OC	0.12
CCOc1ccc(-n2c(SCc3cccc(F)c3)nc3c(c2=O)SCC3)cc1	1.9
COc1cccc2c(Nc3cccc(O)c3)cc(C)nc12	-0.06
O=C(CCS(=O)(=O)c1cccc2nsnc12)NCCN1CCN(c2ccccc2)CC1	1.8
CN1CCN(CC(=O)N2CCn3c4c(c5cc(C6CCCCC6)ccc53)CCCC42)CC1 (configuration not stated)	-1.7
CCC(NS(=O)(=O)c1ccc(C)cc1)C(=O)NCc1ccc(C)cc1 (configuration not stated)	1.6
Cc1cc2ncn(CC(O)COCc3ccccc3)c2cc1C (configuration not stated)	-0.24
O=C(O)c1ccc2c(c1)nnn2C1CCCCC1	-0.66
COc1ccc(CCN(C)C(=O)C2CCCN(Cc3cccc(F)c3)C2)cc1OC (configuration not stated)	-0.41
COC(=O)c1ccc(C(=O)OC)c(-n2c(=O)c3ccccc3c3ccccc3c2=O)c1	0.54
COc1ccccc1Nc1c([N+](=O)[O-])ccc2c1=NC1(CCCCC1)N=2	-0.22
CCCN1C(=O)C(=O)c2cc(Br)ccc21	-0.7
CCc1ccccc1NC(=O)c1cc2c(C)nn(-c3ccccc3)c2s1	0.13
COc1ccc(OC)c(Nc2ncnc3sc(C)cc23)c1	-0.05
O=[N+]([O-])c1ccc(N2CCOCC2)cc1NCCc1ccccc1	-1.2
Cc1cccn2c(Nc3ccc4c(c3)OCO4)c(-c3ccccn3)nc12	-0.59
CC1=C(C(=O)OC2CCCCC2)C(c2ccsc2)C2=C(CC(C)(C)CC2=O)N1 (configuration not stated)	-0.5
COc1ccc(C2C(C(=O)N3CCCC3)CCC(=O)N2c2cc(OC)c(OC)c(OC)c2)cc1 (configuration not stated)	0.41
Cc1ccsc1C1Nc2ccc3ncccc3c2C2=C1C(=O)CC(c1ccccc1)C2 (configuration not stated)	-0.6
COc1ccc(-c2oc3ncn(Cc4ccccc4)c(=N)c3c2-c2ccc(OC)cc2)cc1	-0.25

5 entries from above in another layout:
| smiles | Measles inh |
| --- | --- |
| CCc1ccccc1NC(=O)c1cc2c(C)nn(-c3ccccc3)c2s1 | 0.13 |
| CCOC(=O)c1ccc(N2C(=S)NC3c4cccc(OC)c4OC2(C)C3C(=O)N(C)C)cc1 (configuration not stated) | -0.22 |
| COc1ccc(-c2oc3ncn(Cc4ccccc4)c(=N)c3c2-c2ccc(OC)cc2)cc1 | -0.25 |
| O=[N+]([O-])c1ccc(N2CCOCC2)cc1NCCc1ccccc1 | -1.2 |
| COc1ccc(N2Cc3cccc(C(=O)NCc4ccc(C)cc4)c3C2=O)cc1 | -0.78 |

The list goes on.
SMILES	Measles inh
CCOC(=O)c1sc2nc(CC(=O)OC)nc(Nc3cc(F)ccc3C)c2c1C	-0.13
O=[N+]([O-])c1ccccc1-c1nc(-c2ccccc2)c(-c2cccs2)[nH]1	-0.79
COc1ccc(COC(=O)C2=C(C)NC3=C(C(=O)CC(C)(C)C3)C2c2ccc(C)o2)cc1 (configuration not stated)	1.1
Cc1ccc(NC(=O)C2c3ccccc3C(=O)N(C)C2c2cccs2)c(Br)c1 (configuration not stated)	0.12
O=C(Cc1ccc(F)cc1)Nc1ccc(S(=O)(=O)Nc2ncccn2)cc1	0.36
Cc1cc(=O)oc2cc(Cl)c(OC(=O)c3ccccc3)cc12	-0.32
CCOc1ccc2[nH]c(C)c(CN(C)Cc3ccccc3)c(=O)c2c1	-0.13
O=C1C(=O)N(CCCn2ccnc2)C(c2ccc(Cl)cc2)/C1=C(\O)c1ccc(F)cc1 (configuration not stated)	0.93
Cc1ccc(N2C(=O)C3CC=CCC3C2=O)c(C)c1 (configuration not stated)	1.4
CCOC(=O)c1ccc(NC(=O)C2CCCN2S(=O)(=O)c2ccc(C)cc2)cc1 (configuration not stated)	-0.67
CCOc1ccc(C=C2N=C(SC)SC2=O)cc1	0.05
O=C(c1ccc(N=Cc2c(O)cccc2Cl)cc1)N1CCCCC1	-0.53
CN(C)CCCN1C(=O)C(=O)/C(=C(/O)c2ccc(Br)cc2)C1c1ccccc1 (configuration not stated)	0.46
O=C1OC2(C(=O)c3ccccc3C2=O)/C(=C(\O)c2ccc(Br)cc2)C1=O	0.05
Cc1ccc2c(c1)NC(=O)C(Cl)(C(F)(F)F)O2 (configuration not stated)	1.8
CCCOC(=O)C1=C(C)NC2=C(C(=O)CCC2)C1c1cc(Br)c(O)c(OCC)c1 (configuration not stated)	0.01
Cc1onc(-c2ccccc2Cl)c1-c1nc(-c2ccc(C(F)(F)F)cc2)no1	1.3
COc1ccc(Cl)cc1N1C(=O)C=CC1=O	-0.94
O=C1c2ccc(-c3nc4ccccc4c(=O)o3)cc2C(=O)N1c1cccc(C(F)(F)F)c1	-0.53
NC(=O)CN1C(=O)c2ccccc2C1=O	2.1
COCCOC(=O)C1=C(C)NC(=O)NC1c1ccc(Br)s1 (configuration not stated)	-0.55
CCOC(=O)c1c(NC(=O)CCCn2cnc([N+](=O)[O-])n2)sc(C)c1C	1.2
CCOc1ccc(-n2c(SCC)nc3c(c2=O)SCC3)cc1	-1.7
O=C(COc1ccc(C2Nc3ccccc3S(=O)(=O)N2Cc2ccccc2)cc1)NC1CCCCC1 (configuration not stated)	-0.61
CCN(CC)S(=O)(=O)c1ccc(C(=O)Nc2nc(-c3ccc(F)cc3)cs2)cc1	0.95
Additional records
SMILES	Measles inh
COC(=O)c1cccc(NC(=O)c2cc3ccccc3o2)c1	-1.2
CC(C)(C)c1ccc(CCCNCCN2CCNCC2)cc1	-1.3
O=C(Cc1ccc([N+](=O)[O-])cc1)N1N=C(c2ccc(Br)cc2)CC1(O)C(F)(F)F (configuration not stated)	1.9
Cc1ccc2cc3cc(C(=O)NCCN(C)C)sc3nc2c1	-1.6
Cc1ccc(NC(=O)C(NC(=O)CN2CC(=O)Nc3ccccc32)c2ccccc2)cc1 (configuration not stated)	-0.75
CC(C)c1ccc(OCC(=O)Nc2ccc(C(=O)OC3CCCCC3)cc2)cc1	-0.61
CCOC(=O)Cc1csc2nc(=O)c3c(C)c(C)sc3n12	-2.2
O=C(O)CC(NS(=O)(=O)c1ccc(F)cc1)c1ccccc1 (configuration not stated)	-1.2
O=C(Nc1ccc2c(c1)OCO2)c1ccc(NS(=O)(=O)c2cccs2)cc1	-0.7
COC(=O)c1ccccc1NC(=O)c1ccc(N2CC3CC(C2)c2cccc(=O)n2C3)c(NC(=O)c2ccc(Br)o2)c1 (configuration not stated)	-1.1
Cc1sc2ncn(CC(=O)NCCCN3CCCCCC3)c(=O)c2c1S(=O)(=O)N1CCOCC1	-0.04
NC(=O)c1cc2cc(Cl)ccc2oc1=Nc1ccc(F)cc1	0.43
O=C(c1cccnc1)N1N=C(c2cccc(Br)c2)CC1(O)C(F)(F)F (configuration not stated)	-1.5
c1ccc(-c2nc(NCc3cccnc3)c3ccccc3n2)cc1	0.54
Nc1ccc(Oc2ccc3c(c2)C(=O)N(Cc2ccco2)C3=O)cc1	-0.31
O=C1N(Cc2ccccc2)c2cccc3cccc(c23)N1Cc1ccccc1	0.56
COC(=O)c1cccc(NC(=O)c2ccco2)c1	-0.08
CCCNC(=O)c1cc2nc(-c3ccccc3)cc(-c3ccccc3)n2n1	-1.9
Cc1ccc(-n2nc3c(c2NC(=O)C2CC2)CS(=O)(=O)C3)cc1	-0.87
CCCCn1c(=NC(=O)c2ccccc2Cl)c(C(=O)OCC)cc2c(=O)n3ccccc3nc21	-0.1
O=P(O)(c1ccccc1)c1ccccc1O	0.08
CC(C)(O)C#Cc1ccc(C(=O)NC(c2ccccc2)c2ccccc2)cc1	0.5
Cc1ccc(C)c(N2C(=O)C3C4C=CC(C4)C3C2=O)c1 (configuration not stated)	-0.24
CCN(CCN(C)C)C(=O)Cn1c(=S)[nH]c2ccccc2c1=O	2.1
C=CCNC(=O)c1cc2ccccc2o1	-0.94

Among those listed so far, these have a COOH group:
SMILES	Measles inh
O=C(O)c1ccc2c(c1)nnn2C1CCCCC1	-0.66
O=C(O)CC(NS(=O)(=O)c1ccc(F)cc1)c1ccccc1 (configuration not stated)	-1.2

Structural class, the entries above containing a CF3 group.
SMILES	Measles inh
Cc1ccc2c(c1)NC(=O)C(Cl)(C(F)(F)F)O2 (configuration not stated)	1.8
Cc1onc(-c2ccccc2Cl)c1-c1nc(-c2ccc(C(F)(F)F)cc2)no1	1.3
O=C1c2ccc(-c3nc4ccccc4c(=O)o3)cc2C(=O)N1c1cccc(C(F)(F)F)c1	-0.53
O=C(Cc1ccc([N+](=O)[O-])cc1)N1N=C(c2ccc(Br)cc2)CC1(O)C(F)(F)F (configuration not stated)	1.9
O=C(c1cccnc1)N1N=C(c2cccc(Br)c2)CC1(O)C(F)(F)F (configuration not stated)	-1.5

The listing continues.
SMILES	Measles inh
CCCOC(=O)C1C2C=CC3(CN(c4ccc(OC)cc4)C(=O)C13)O2 (configuration not stated)	0.41
CCCOC(=O)c1ccc(NS(=O)(=O)c2ccc(OC)c(OC)c2)cc1	-0.16
Nc1ccccc1C(=O)N1CCc2ccccc21	-0.45
CCC(C)NS(=O)(=O)c1ccc(F)c(C(=O)Nc2ccc(Cl)cc2C(F)(F)F)c1 (configuration not stated)	0.67
CC(C)(C)c1ccc(OC(=O)c2ccc3snnc3c2)cc1	0.25
CN(Cc1ccccc1)C(=O)c1ccc(N2CC3CC(C2)c2cccc(=O)n2C3)c(NC(=O)c2ccc(Br)o2)c1 (configuration not stated)	0.13
O=C(NCc1nnc(SCC(=O)N2CCOCC2)o1)c1cccs1	-0.12
COC(=O)c1nnn(CC(=O)Nc2c(C)cccc2C)c1C(=O)OC	-1.3
COc1ccc(-c2cc(C(=O)Nc3c(C)nn(Cc4ccccc4)c3C)no2)cc1OC	-1.4
COc1ccc(CC(=O)Nc2ccc(-c3noc(CCc4ccccc4)n3)cc2)cc1	-1.8
COc1ccc2oc(=Nc3ccccc3)c(C(=O)NC(C)=O)cc2c1	1.7
CC(NS(=O)(=O)c1ccc(C(C)(C)C)cc1)C1C2CC3CC(C2)CC1C3 (configuration not stated)	-0.37
Cc1cc(O)c(C=Nc2ccc3oc(-c4cccnc4)nc3c2)cc1C	-0.18
COc1ccc(C2C(C(=O)Nc3ccc(C)cc3C)=C(C)Nc3ncnn32)cc1 (configuration not stated)	-0.16
CC(=O)N1c2c(cc(Br)cc2S(=O)(=O)Nc2ccc(C)cc2)CC1C (configuration not stated)	-0.4
Cc1cc(C)c(S(=O)(=O)N2CCN(S(=O)(=O)c3cc(C)c(C)cc3C)C(C)C2)cc1C (configuration not stated)	-0.13
O=C1C(=O)N(CCCn2ccnc2)C(c2ccccc2F)/C1=C(\O)c1ccc(Br)cc1 (configuration not stated)	1.1
Cc1cc(C)c2c3c(sc2n1)C(=O)N(Cc1ccccc1)CC(=O)N3	-0.97
CCOC(=O)CNS(=O)(=O)c1cc(-c2nnc(Nc3ccc(Br)cc3)c3ccccc23)ccc1C	-0.22
CCCCNC(=O)CSc1nc2ccccc2c(=O)n1Cc1ccco1	-0.2
CN(Cc1ccccc1)C(=O)c1nn2c(C(F)(F)F)cc(-c3cccs3)nc2c1Cl	-1.1
Cc1ccc(C)c(N(C)C(=O)CCS(=O)(=O)c2cccc3nonc23)c1	-0.66
O=C(CCn1c(=O)c2ccccc2n(Cc2cc(=O)n3ccccc3n2)c1=O)NCCc1ccc(Cl)cc1	1
Cc1ccccc1OCCCc1c(C)n[nH]c1C	-0.38
COc1cccc(NC(=O)C2C3C=CC4(O3)C2C(=O)N(CC2COc3ccccc3O2)C4C(=O)NC2CCCCC2)c1 (configuration not stated)	-0.75
New compounds follow:
SMILES	Measles inh
CC1=Nc2ccc([N+](=O)[O-])cc2C1(C)C	0.13
COC(=O)c1c(NC(=O)c2ccccc2OC)sc(C)c1C	-1.7
O=[N+]([O-])c1cccc(-c2nc(-c3ccc(Cl)cc3)no2)c1	-0.35
Cc1ccc2cc3cc(C(=O)N4CCCC(C)C4)sc3nc2c1 (configuration not stated)	-0.93
CCCn1c(-c2ccc(S(=O)(=O)N3CCOCC3)cc2)csc1=Nc1ccccc1	-0.37
CCOc1ccc2c3c(c(=O)oc2c1)CCCC3	0.59
CCC(Sc1nc2c(c(=O)n1C)SC(C)C2)C(=O)OC (configuration not stated)	-0.03
Cc1ccc(NC(=O)c2c(O)c3ccccc3n(C)c2=O)c(Br)c1	0.69
COc1ccc(OC)c(NC(=O)Cn2cnc3sc(C)c(S(=O)(=O)N4CC(C)CC(C)C4)c3c2=O)c1 (configuration not stated)	-1.9
CCOC(=O)c1c(NC(=O)CCc2ccc(OC)cc2)sc2c1CCC(C)C2 (configuration not stated)	-0.1
COc1cccc(NC(=O)Nc2cc(S(=O)(=O)N3CCC(C)CC3)ccc2N2CCC(C)CC2)c1	0.39
CCC1=Nc2cc(C(=O)NCCCN3CCC(C)CC3)ccc2Sc2ccc(C)cc21	-0.96
O=C(Nc1ccc2c3c1C1C=CCC1CN3CC1CC=CC21)c1ccccc1 (configuration not stated)	2.3
CCCNCc1nc(-c2ccc(C)cc2)no1	1.2
CC1CCN(C(=O)C(C(C)C)N2C(=O)c3ccccc3C2=O)CC1 (configuration not stated)	1.2
Cc1ccc(N(CCO)S(=O)(=O)c2ccc(NC3=NS(=O)(=O)c4ccccc43)cc2)cc1	0.24
CCOc1ccccc1C(=O)Nc1ccc(S(=O)(=O)N2CCCCC2C)cc1 (configuration not stated)	0.2
COc1ccc2c(c1)C1C=CCC1C(C(=O)O)N2 (configuration not stated)	-1.9

Reprinted at random: 4 records from the list.
SMILES	Measles inh
O=[N+]([O-])c1ccc(N2CCOCC2)cc1NCCc1ccccc1	-1.2
COc1ccc(COC(=O)C2=C(C)NC3=C(C(=O)CC(C)(C)C3)C2c2ccc(C)o2)cc1 (configuration not stated)	1.1
CC(C)n1c(=S)[nH]c2c(sc3ccccc32)c1=O	0.01
Cc1ccc2cc3cc(C(=O)N4CCCC(C)C4)sc3nc2c1 (configuration not stated)	-0.93

Bioassay records deposited in PubChem BioAssay by Emory University Molecular Libraries Screening Center.
